Compound activity: PubChem BioAssay, several laboratories
CSC inhib: blocks cancer stem cells. inhibition, % at 7.5 µM. cancer stem cell-like cells viability, luminescence. AID 2717. 300,000 compounds, 1.1% hits;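 active means mean at 75% or more and at least half the replicates too; inconclusive means mean and replicates disagree; tested in HMLE shEcad cells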;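 further: 0% = median of negative and 100% = median of positive control wells; the first replicate is given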
eIF4H inh: inhibitors of RNA binding by human eIF4H | 290,000 compounds, 0.94% hits | eIF4H fluorescence polarization binding assay | Q15056 | AID 2012 | inhibition, % at 35 µM;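 active means 50% or more with normal probe brightness, or confirmed in later tests; inconclusive means above 50% with abnormal brightness, or retests that disagree; inactive means below 50% or failed in later tests; about a fifth of its hits are not listed in these tables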;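 further: calls also rest on retests at 20 µM and on dose response follow-up; 0% = protein and probe with vehicle and 100% = probe without protein; strong numbers were not always called active; many hits fall short of the cut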
Rce1 inh: yeast Ras-converting enzyme inhibition; yeast membranes, quenched prenylated peptide cleavage fluorescence; calls only; AID 2563; 290,000 compounds, 0.27% hits; Q03530;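 active means fall in fluorescence gain of 50% or more versus controls, with final raw signal at or below 3038400; inconclusive means same 50% fall but final raw signal above 3038400; inactive means fall in fluorescence gain under 50%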;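 further: plate controls were neutral control wells for no effect and wells lacking membranes for full effect; tested at 10 µM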
Target sequence (Q03530 whole entry, looked up): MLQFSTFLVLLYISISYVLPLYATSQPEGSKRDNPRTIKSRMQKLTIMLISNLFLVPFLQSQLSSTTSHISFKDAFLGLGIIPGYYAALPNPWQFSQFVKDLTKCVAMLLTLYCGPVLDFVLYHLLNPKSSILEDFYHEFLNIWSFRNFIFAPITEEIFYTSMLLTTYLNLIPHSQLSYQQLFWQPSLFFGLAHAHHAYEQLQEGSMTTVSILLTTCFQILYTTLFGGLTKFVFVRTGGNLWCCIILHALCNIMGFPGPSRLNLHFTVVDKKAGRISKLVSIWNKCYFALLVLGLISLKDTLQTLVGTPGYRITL
HIV Env fusion: blocks HIV Env-driven cell-cell fusion | HeLa-JRFL Env/CEM21 cell fusion, luciferase | AID 651610 | 360,000 compounds, 1.1% hits | inhibition, % at 12.3 µM;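 active means mean replicate inhibition score of at least 50 and every replicate individually at or above 50; inconclusive means only one of the two criteria met; inactive means mean below 50 and not all replicates reaching 50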;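 further: 0% = plate neutral controls and 100% = maraviroc near 300 nM; one replicate is shown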
PABP polyA inh: blocks human PABP binding to poly(A) RNA; P11940; 290,000 compounds, 1% hits; AID 2014; fluorescence polarization; inhibition, % at 35 µM;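 active means 50% or more with normal probe brightness, or confirmed in later tests; inconclusive means above 50% with abnormal brightness, or retests that disagree; inactive means below 50% or failed in later tests; about a fifth of its hits are not listed in these tables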;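 further: calls also rest on retests at 20 µM and on dose response follow-up; controls were probe without protein and protein plus probe with vehicle; some compounds called inactive have numbers as strong as hits; many hits fall short of the cut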
Target sequence (P11940 whole entry, looked up): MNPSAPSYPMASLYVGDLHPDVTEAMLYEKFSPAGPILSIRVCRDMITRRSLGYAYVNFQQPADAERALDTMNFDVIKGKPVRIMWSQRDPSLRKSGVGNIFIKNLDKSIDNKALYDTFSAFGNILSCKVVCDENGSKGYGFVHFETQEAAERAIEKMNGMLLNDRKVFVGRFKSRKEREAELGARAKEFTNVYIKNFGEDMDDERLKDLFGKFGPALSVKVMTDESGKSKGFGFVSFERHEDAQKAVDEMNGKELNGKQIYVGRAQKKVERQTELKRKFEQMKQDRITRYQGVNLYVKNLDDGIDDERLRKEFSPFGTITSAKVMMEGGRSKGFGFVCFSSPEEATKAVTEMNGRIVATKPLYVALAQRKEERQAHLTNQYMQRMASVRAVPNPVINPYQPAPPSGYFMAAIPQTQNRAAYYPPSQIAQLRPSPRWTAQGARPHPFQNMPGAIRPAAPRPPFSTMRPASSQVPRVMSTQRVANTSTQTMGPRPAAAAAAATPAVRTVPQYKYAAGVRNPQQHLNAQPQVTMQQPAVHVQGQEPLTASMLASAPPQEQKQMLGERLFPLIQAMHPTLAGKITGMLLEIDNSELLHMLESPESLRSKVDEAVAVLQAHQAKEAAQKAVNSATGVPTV
MT1-MMP act inh: MT1-MMP (human) activation inhibition; GFP/RFP ratio change, % at 20 µM; HT1080 RFP-PRO-GFP cells, GFP/RFP ratio fluorescence, overnight; percent of plate control window, DMSO zero; P50281; 360,000 compounds, 0.061% hits;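 active means GFP/RFP ratio change of at least 30% with cell ATP level not reduced by more than half and red fluorescence within 50% of control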; further: strong numbers were not always called active
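Assay system: HT1080 RFP-PRO-GFP cells | Dosing: 20 µM single dose, 1% DMSO | Incubation: Cells overnight before dosing, compound overnight, 37 °C, 5% CO2 | Evaluation: GFP/RFP fluorescence ratio | Control set: DMSO-only wells and HT1080 RFP-L50D-GFP cell wells as references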
Yeast UUG start: modulators of start codon recognition fidelity in yeast; 350,000 compounds, 0.13% hits; activity score, % at 18.7 µM; S. cerevisiae UUG-firefly luciferase reporter, luminescence/redox ratio;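 active means replicate mean at a twofold rise or more, about +100% in these data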;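 further: firefly luciferase made from a UUG start codon reports start codon fidelity; reporter light over untreated wells divided by growth signal over untreated wells; some hits fall short of that in this replicate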
eIF4H inh retest: recorded beside eIF4H inh, whose call it bears; inhibition, %; compound at 20 µM; confirmation average;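 mean of two retest wells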
PABP polyA inh retest: recorded beside PABP polyA inh, whose call it bears; inhibition, %; compound at 20 µM; confirmation repeats;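 mean of two retest wells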
MT1-MMP act inh RFP: second read-out of MT1-MMP act inh, no call of its own (marks repeat the call); RFP signal change, %; measured here: RFP expression control read;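 0 = vehicle wells; hits needed this value within 50% of zero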
Active calls of the source: *; i = inactive; ? = inconclusive; nt = not tested or not shown.

SMILES	CSC inhib	eIF4H inh	Rce1 inh	HIV Env fusion	PABP polyA inh	MT1-MMP act inh	MT1-MMP act inh RFP	Yeast UUG start	others
CC(C)=C(NC(=O)c1ccccc1)C(=O)NCCCC(=O)O	-9	5	i	nt	-7	3	3	-43
CCOC(=O)c1[nH]cnc1N=Nc1c(O)ccc2ccccc12	72	?	i	-42	-6	59	66	nt
CC1CC(C)CN(C(=O)c2cccc(S(=O)(=O)N(C)c3ccccc3)c2)C1 (centres undefined)	nt	nt	nt	37	nt	-1	-10	-15
CN(C)c1ccc(S(=O)(=O)NCC(=O)NCCC2=CCCCC2)cc1[N+](=O)[O-]	nt	nt	nt	3	nt	-1	-4	7
C=CCn1c(SCc2nc3ccccc3[nH]2)nnc1-c1ccncc1	7	-4	i	19	-4	-12	2	-25
Cn1c(=O)c(/C=C/c2ccc(F)cc2)nc2ccccc21	nt	?	i	-34	?	-10	-2	-5
COc1ccc(COCC(O)CN2CC(C)OC(C)C2)cc1OC (centres undefined)	-6	9	i	nt	8	-5	0	-3
CC(=O)c1ccc(NC(=O)[C@@]2(CC(=O)O)CC(/C=C/c3ccccc3)=NO2)cc1	0	-5	i	-4	0	5	5	-6
NC(=O)CC(NC(=O)Cc1ccc(Br)cc1)c1ccc(NC2CCC2)c([N+](=O)[O-])c1 (centres undefined)	22	37	i	-6	6	2	3	-29
C=CCNC(=O)c1ccc(NC(=O)C2=CSCCO2)cc1	8	17	i	nt	4	2	2	-35
CCOc1ccc(NC(=O)CNC(=O)c2ccc([N+](=O)[O-])cc2)cc1	0	-3	i	2	-4	1	1	nt
Cc1ccccc1NC(c1cccc(Cl)c1)c1nnnn1C1CCCCC1 (centres undefined)	-3	-6	i	nt	-2	-4	2	4
Cc1ccccc1Cn1c2ccccc2c2cnn(CC(=O)NCCCN3CCN(C)CC3)c(=O)c21	-14	-7	i	7	8	-1	-1	3
Cc1onc(C(=O)Nc2cccc(C(F)(F)F)c2)c1[N+](=O)[O-]	nt	-8	i	3	6	-2	-2	-15
O=C(Nc1ccccc1)c1cccc(N2C(=O)C3C4C=CC(C5CC45)C3C2=O)c1 (centres undefined)	5	-4	i	8	6	3	-15	nt
O=C(CCCN1C(=O)/C(=C\c2ccccc2)SC1=S)Nc1ccc(C(=O)O)cc1	6	-9	i	2	-10	-4	5	-11
Cc1ccc(S(=O)(=O)N(C)Cc2nc(-c3ccccn3)no2)cc1	-1	-11	i	12	-11	3	5	-4
CCC(=O)N(C)/C=C1\Sc2ccccc2C1=O	-9	-11	i	nt	2	6	19	nt
CC(=O)NC1(C(F)(F)F)NC(=O)N(CCc2ccccc2)C1=O (centres undefined)	1	-2	i	-1	11	-3	-3	4
CCCCOC(=O)C1CCC[C@@H](C)N1 (some centres undefined)	-5	10	i	nt	1	-4	2	-19
O=C1CC(C(=O)O)(c2ccccc2)c2cccc(F)c21 (centres undefined)	-15	4	i	-9	4	-4	3	-12
O=C(NCc1nc(-c2ccc(C(F)(F)F)cc2)no1)c1cccs1	3	-15	i	-5	-4	4	-1	nt
CC(=O)Oc1ccccc1C(=O)Oc1ccc(/C=N/n2cnnc2)cc1	-2	3	i	-45	7	7	1	-10
CCOC(=O)C1C(=O)C=C(C)C(C(=O)OCC)C1c1cccc([N+](=O)[O-])c1 (centres undefined)	8	4	i	19	5	2	1	-16
COc1cc(OC)cc(-c2nc3ccccc3c(=O)n2OC(=O)c2ccc(C)c(C)c2)c1	11	0	i	-2	-7	8	10	nt
Next section:
SMILES	CSC inhib	eIF4H inh	Rce1 inh	HIV Env fusion	PABP polyA inh	MT1-MMP act inh	MT1-MMP act inh RFP	Yeast UUG start	others
C/C(=N\NC(=O)OC(C)(C)C)c1cccc([N+](=O)[O-])c1	-4	5	i	nt	16	-1	2	nt
C#CCN1C(=O)C2(OCCO2)c2ccccc21	-5	8	i	-29	-8	1	4	-5
CC1CCN(C(=O)CCc2ccc(S(=O)(=O)NC(C)(C)C)cc2)CC1	-9	2	i	38	-1	1	-4	nt
Cc1cc(NS(=O)(=O)c2ccc(NC(=O)c3ccc(Cl)cc3[N+](=O)[O-])cc2)no1	-3	-6	i	5	1	1	1	1
O=C(NNc1cccc(Cl)c1)c1cccnc1Cl	45	9	i	-1	-6	3	4	nt
COc1cc(-c2nc3cnccc3n2C)cc(OC)c1OC	8	-8	i	nt	1	-1	4	-1
CCOC(=O)c1cccc(P(C)(C)=O)c1	nt	-9	i	23	-7	2	6	1
COc1ccc(C)cc1NC(=O)c1cccc(-c2ccc(OC(C)=O)cc2)c1	nt	-6	i	-5	6	-4	-3	-3
O=C(CCCc1c[nH]c2ccccc12)NCc1cccs1	-10	-3	i	-10	20	4	2	nt
O=C(N/N=C/c1ccccc1)c1[nH]ncc1Br	-5	1	i	-19	-4	0	2	nt
CCOc1cc(/C=C2\SC(=N)N(c3nonc3N)C2=O)ccc1OCCN1CCOCC1	4	2	i	10	-7	-9	-5	nt
COc1ccc(/C=C(\NC(=O)c2ccccc2)C(=O)N2CCCCC2)cc1OC	-9	-15	i	6	-2	-7	4	13
O=C(COc1ccc([N+](=O)[O-])cc1)N(C1CCCCC1)C1CCS(=O)(=O)C1 (centres undefined)	4	nt	i	nt	nt	-4	-2	-17
Cc1occc1C(=O)Nc1cccnc1	-8	1	i	-10	1	-2	0	-18
COCCCN(CCNC(=O)c1ccc(NC2=NC3CS(=O)(=O)CC3S2)cc1)Cc1ccco1 (centres undefined)	-12	-3	i	nt	-17	4	-1	-1
Cn1nc(C(C)(C)C)c([N+](=O)[O-])c1C(=O)N1CCCCCC1	5	61	i	10	0	-1	2	10	eIF4H inh retest=-4;PABP polyA inh retest=0
CSc1nc2c(c(=O)n1Cc1ccccc1)SC(C)C2 (centres undefined)	9	-4	i	nt	-5	-8	-2	-10
C=CCNC(=O)CN1CCN(Cc2ccc3c(c2)OCO3)CC1	-7	1	i	-18	8	3	4	-13
N#CC1=C(S)N(c2ccccc2)C(c2ccc(-c3cccc(Cl)c3)o2)NC1=O (centres undefined)	23	7	i	24	8	-8	2	-11
Cc1ccc(OC(C)C(=O)Nc2ccncc2)cc1 (centres undefined)	-1	3	i	18	13	0	-18	-13
O=C(C1=C(O)C(=O)N(CCCN2CCOCC2)C1c1ccc(Cl)cc1)c1cc2ccccc2o1 (centres undefined)	10	4	i	-2	6	nt	nt	nt
Cc1cc(C)c(NC(=O)CN(c2ccccc2)S(=O)(=O)N(C)C)c(C)c1	-10	25	i	-13	-2	6	3	-16
O=S(=O)(c1ccc(Cl)cc1)N1CCCC(c2nc(-c3ccc(F)cc3)no2)C1 (centres undefined)	20	nt	nt	14	nt	3	-20	-13
CC1(C(=O)CSc2nc3ccccc3s2)CCC(=O)O1 (centres undefined)	5	-9	i	nt	13	0	2	-9
O=C1c2cc([N+](=O)[O-])ccc2-c2cc(Cl)c(NC(=O)C(F)(F)F)cc21	nt	nt	nt	-9	nt	-1	-1	-2
(cont.)
SMILES	CSC inhib	eIF4H inh	Rce1 inh	HIV Env fusion	PABP polyA inh	MT1-MMP act inh	MT1-MMP act inh RFP	Yeast UUG start	others
Cc1ccc2c(c1)[C@H]1OCC[C@H]1[C@@H](c1ccncc1)N2	1	-17	i	-1	6	0	3	-21
Cc1ccc2oc(C(=O)NCC(c3ccco3)N(C)C)c(C)c2c1 (centres undefined)	9	-4	i	-17	0	-2	3	-27
CCOC(=O)C(NCc1ccccc1OC)(NC(=O)c1ccccc1)C(F)(F)F (centres undefined)	4	-4	nt	-100	-11	6	1	-19
O=C(OCn1ncc(Br)c(Br)c1=O)c1c(F)cccc1F	-3	-14	i	nt	-10	nt	nt	nt
COc1cccc(-c2sc3ccc(OC)cc3c2-c2ccc(O)cc2)c1	129*	nt	nt	9	nt	-2	-5	-42
CC(=O)c1c(N)nc2n(c1=O)CCCCC2	-11	6	i	nt	-16	2	3	-9
Nc1c(C(=O)N/N=C/c2ccc([N+](=O)[O-])cc2)cnn1-c1ccccc1	13	8	i	4	-12	3	0	7
CC(=O)c1ccc(OCCCC(=O)OCC(=O)N2CCN(c3ccccc3)CC2)cc1	-10	-2	i	nt	0	3	5	-3
Cc1nc2ccccc2n1CCc1nc2c3ccccc3nc(SCC#N)n2n1	-2	-4	i	nt	-1	nt	nt	nt
O=c1cc(N2CCc3ccccc3C2)[nH]c(=O)n1Cc1ccc(F)cc1	-4	9	i	nt	-4	-56	-22	-9
O=C(Nc1ccccc1O)C(c1ccccc1)c1ccccc1	3	1	i	36	-1	-3	-25	-7
O=C(NCc1ccccn1)c1cc(-c2ccc(Cl)cc2)nc2ccccc12	0	-2	i	-18	83	-5	-9	-30	eIF4H inh retest=-16;PABP polyA inh retest=6
COc1ccc(/C=C2/C(=N)N3N=C(CC(=O)N4CCCC4)SC3=NC2=O)cc1OC	7	-2	i	2	3	-7	-5	0
COC(=O)c1ccc(CNC(=O)COC(=O)c2cc(Cl)ccc2O)cc1	-3	nt	nt	nt	nt	7	3	-10
COc1cc(C2CC(=O)c3c(ccc4ccccc34)N2)ccc1O (centres undefined)	8	6	i	-16	-4	-4	5	9
CC(CNC(=O)Cn1ccc2cc(S(=O)(=O)N3CCCC3)ccc21)c1ccccc1 (centres undefined)	4	4	i	45	6	5	-4	-8
Cc1ccccc1N1C(=O)C2C3CCC(O3)C2C1=O (centres undefined)	-2	-13	i	-4	-6	-3	3	-6
Cc1nc(Cl)cc(N/N=C/c2ccc(O)cc2O)n1	7	-3	nt	-21	5	7	0	-21
Cc1ccc(S(=O)(=O)N(C)C)cc1NC(=O)Cn1c(CN2CCOCC2)nc2ccccc2c1=O	-9	-6	i	-1	-2	1	-2	nt
CCOC(=O)c1c(C)n(C)c2ccc(OC)c(NC(=O)CN3CCN(C4CCCCC4)CC3)c12	-5	7	i	-8	7	-9	0	-10
Cc1ccc(NC(=O)CCNC(=O)c2ccccc2Cl)cc1S(=O)(=O)N1CCCCCC1	6	nt	nt	nt	nt	4	-11	-3
O=C(CC(C(=O)O)P(=O)(c1ccccc1)c1ccccc1)c1ccc(Br)cc1 (centres undefined)	1	2	i	1	7	10	8	-11
CC(C)(C)NC(=O)CN(C(=O)CCC(=O)Nc1nccs1)c1cccc(C(F)(F)F)c1	-18	-9	i	7	12	-3	0	21
Cc1ccc(C(=O)N/C(=C/c2ccco2)C(=O)NCC2CCCO2)cc1 (centres undefined)	-5	32	i	-16	6	-2	6	nt
O=C(Nc1ccc(F)c(Cl)c1)C1CCCN(c2cnccn2)C1 (centres undefined)	4	nt	i	-11	nt	1	2	-25
CCOC(=O)C(Cc1cc(N)c(Oc2ccc(OC)cc2)c(N)c1)NC(C)=O (centres undefined)	nt	nt	nt	-41	nt	-2	3	-15
COc1ccc(-c2[nH]c(-c3cccc(OC)c3)nc2SCC(=O)NCc2ccco2)cc1	-9	-5	nt	-29	-13	1	-2	-12
COc1cc([C@@H]2CC=C(C(=O)O)[C@H](c3ccc(Cl)cc3)N2S(=O)(=O)c2ccc(C)cc2)cc(OC)c1OC	7	nt	nt	27	nt	8	6	4
O=C1C2C(C(=O)N1CCc1ccccc1)C1C=CC2C12CC2 (centres undefined)	-18	4	i	nt	-3	0	1	-17
